Screens: PubChem BioAssay, National Center for Advancing Translational Sciences (NCATS)
NPR1 antag: antagonists of human natriuretic peptide receptor Npr1. HEK293 hNpr1 GloSensor cGMP, ANP-stimulated luminescence. Potency, µM (series often up to 46.3 µM), for the others: top-dose activity change, negative = inhibition, actives largely listed as inhibitors. 76,000 tested, 1.6% active; active = well fitted inhibition curve with a large enough effect; inconclusive = small, poorly fitted or top-dose-only effect; inactive = no such curve, though single readings can be large or run the other way;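 note: nearly all actives have a fitted effect of over 60% in size; nearly all hits also lower the signal before the agonist is added; a reference antagonist and vehicle were the controls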
Target sequence (P16066 whole entry, looked up): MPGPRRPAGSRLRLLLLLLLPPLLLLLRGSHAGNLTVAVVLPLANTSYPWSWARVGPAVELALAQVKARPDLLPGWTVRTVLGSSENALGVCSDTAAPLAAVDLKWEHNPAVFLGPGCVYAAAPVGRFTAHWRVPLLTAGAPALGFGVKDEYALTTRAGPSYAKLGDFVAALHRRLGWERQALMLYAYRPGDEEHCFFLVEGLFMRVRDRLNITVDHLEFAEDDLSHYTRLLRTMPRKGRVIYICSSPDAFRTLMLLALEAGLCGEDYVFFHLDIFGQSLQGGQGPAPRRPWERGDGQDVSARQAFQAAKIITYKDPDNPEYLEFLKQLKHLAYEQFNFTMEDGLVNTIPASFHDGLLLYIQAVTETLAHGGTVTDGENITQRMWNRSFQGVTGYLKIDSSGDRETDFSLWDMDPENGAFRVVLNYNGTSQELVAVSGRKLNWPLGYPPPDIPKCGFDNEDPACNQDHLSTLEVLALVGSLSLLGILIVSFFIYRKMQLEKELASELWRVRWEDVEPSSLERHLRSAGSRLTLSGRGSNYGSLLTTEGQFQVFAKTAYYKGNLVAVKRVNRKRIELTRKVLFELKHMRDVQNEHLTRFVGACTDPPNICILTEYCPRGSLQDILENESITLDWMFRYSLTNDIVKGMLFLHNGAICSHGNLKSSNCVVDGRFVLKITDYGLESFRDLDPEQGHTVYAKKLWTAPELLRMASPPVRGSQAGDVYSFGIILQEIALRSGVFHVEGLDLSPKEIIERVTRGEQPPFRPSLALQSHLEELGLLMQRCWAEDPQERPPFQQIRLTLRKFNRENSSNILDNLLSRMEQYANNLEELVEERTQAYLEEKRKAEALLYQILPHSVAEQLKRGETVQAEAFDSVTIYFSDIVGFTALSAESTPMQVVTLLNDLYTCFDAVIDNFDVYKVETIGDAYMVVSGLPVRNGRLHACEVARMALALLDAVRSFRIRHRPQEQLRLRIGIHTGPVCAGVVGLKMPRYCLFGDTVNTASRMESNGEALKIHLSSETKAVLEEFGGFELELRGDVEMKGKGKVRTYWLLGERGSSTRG
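HEK293 cells stably expressing human Npr1 and cGMP GloSensor pGS-40F, loaded 2 h with 2% GloSensor reagent, given compound 30 min at room temperature. Luminescence read before and 20 min after 0.1 nM hNppA.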
Starred values were filed as active, the others as inactive; ? = inconclusive; [ ] = another dose, or the depositor's remark. % is set by controls: 0 for no effect and ±100 for the full control effect; potency is the fitted concentration of half-maximal effect. A portion of the library. The share of hits here may be higher or lower than overall.

SMILES | NPR1 antag
CCOc1ccc(C(=O)NC2CCN(c3cc(-c4ccc(F)cc4)[nH]n3)CC2)cc1 | -16%
COCCN1C(=O)c2ccccc2C(C(=O)NCCc2ccc(F)cc2)C12CCCC2 (centres undefined) | -1%
COc1ccccc1OC1(C(=O)O)CCN(Cc2cnc(NC(C)C)nc2)CC1 | 10%
CC1(C)C[C@H](NC(=O)c2ccccc2)[C@@]2(CCC(=O)NCc3cccnc3)CC[C@](C)(O)C[C@@H]12 | 3%
O=C([C@H]1CCC[C@H](O)C1)N1CCN(Cc2ccc(C(F)(F)F)cc2)CC1 | -2%
Cc1ccc(NC(=O)CN2C(=O)NC(c3ccc(Cl)cc3)C3=C2COC3=O)cc1 (centres undefined) | -21%
CC(C)Cc1noc(-c2ccc(N3CCCC(C(C)(C)O)C3)nc2)n1 (centres undefined) | -11%
Cc1ccc(N2CCC(N[C@@H]3CC[C@@H](N)C3)CC2)cc1Cl | 1%
Fc1cccc(Cc2noc(-c3nc(-c4ccccc4F)no3)n2)c1 | 1%
COc1ccccc1NC(=O)N1CCOc2ccc(CN3CCc4ccccc4C3)cc2C1 | -3%
CCc1ccc(NC(=O)Cn2c(-c3ccccc3)nc(C)c(CCO)c2=O)cc1 | -25%
COc1ccc(N2CC(C(=O)NC(C)C)NC2=O)cc1 (centres undefined) | 29%[70.6 µM]
COc1ccc(-c2[nH]nc3ncc(C(=O)NCc4ccccc4)nc23)c(C)c1 | -24%[70.6 µM]
CCCNC(=O)N1CC[C@@H]2[C@H]1C(=O)N(c1cccc(F)c1)C(=O)N2Cc1cccs1 | 1%[70.6 µM]
CC(C)NC(=O)C1(c2ccc(NC(=O)C(C)C)cc2)CCCCC1 | 0%
COc1cccc(CC(=O)N2CCC(N3CC4CC(C3)[C@H]3CCCC(=O)N3C4)CC2)c1 (some centres undefined) | 0%
COc1ccccc1-c1noc(CCCC(=O)N2CCc3nc[nH]c3C2)n1 | -1%
O=C(NC1CCCN(c2cc(-c3ccc(F)cc3)[nH]n2)C1)c1cc2ccccc2[nH]1 (centres undefined) | -27%
Cc1cnc(CC2CCN(Cc3ccc(F)cc3F)C2)n1CC1CC1 (centres undefined) | 2%
CS(=O)(=O)N1CCC(C2CCN(Cc3ccc[nH]3)C2)CC1 (centres undefined) | 3%
O=C(c1cc(F)ccc1F)N1CCC(Oc2ncccc2C(=O)N2CCCCC2)C1 (centres undefined) | 2%
COc1cncc(Nc2ncc(-c3ccccc3)c3c2OCC3)c1 | -2%[70.6 µM]
CCCNC(=O)Cn1c(C)ccc(NS(=O)(=O)c2ccc(C)cc2)c1=O | -2%
CN1C(=O)c2cccn2CC1CNC(=O)CCc1c[nH]c2ccccc12 (centres undefined) | 8%
CNC(=O)C1(N2CCC[C@H]2C(=O)NCCOC)CCOCC1 | 2%[70.6 µM]
Cc1cccc(NC(=O)C2CCN(c3cn[nH]c(=O)c3)C2)c1 (centres undefined) | 8%
CNC(=O)c1noc([C@@H]2CC(F)(F)CN2Cc2cn(C)nc2C)n1 | -2%
CCOc1ccccc1CN1CCC2(CCN(C(=O)c3cccc(Cl)c3)CC2)Oc2ccccc21 | 0%
CCn1nc(C)cc1C(=O)N1CCCN(Cc2ccc(F)cc2)C(C(C)C)C1 (centres undefined) | -1%
Cc1cccc(-c2nc(Cn3c(-c4ccc(F)cc4)nc(C)c(CCO)c3=O)c(C)o2)c1 | 4%

4 of the entries above in order of their number in NPR1 antag, lowest first.
SMILES | NPR1 antag
CC(C)Cc1noc(-c2ccc(N3CCCC(C(C)(C)O)C3)nc2)n1 (centres undefined) | -11%
COc1ccccc1-c1noc(CCCC(=O)N2CCc3nc[nH]c3C2)n1 | -1%
CC(C)NC(=O)C1(c2ccc(NC(=O)C(C)C)cc2)CCCCC1 | 0%
O=C(c1cc(F)ccc1F)N1CCC(Oc2ncccc2C(=O)N2CCCCC2)C1 (centres undefined) | 2%

New compounds follow:
SMILES | NPR1 antag
CN1CC2(CCN(C(=O)C3CCCC3)CC2)CC1C(=O)N1CCOCC1 (centres undefined) | 3%
CC[C@H]1CN(S(=O)(=O)c2c(C)noc2C)CC[C@H]1CC(=O)NCc1cccnc1 | 5%[70.6 µM]
CC(C)CN1C(=O)c2cccn2CC1C(=O)NCC1CCN(Cc2ccc(F)cc2)CC1 (centres undefined) | 3%
CCCNC(=O)N(C1CCOCC1)C1CCN(C(=O)c2nccc3ccccc23)CC1 | -1%
CC(C)N1C(=O)[C@@H]2[C@@H](CCN2C(=O)CC(C)(C)CC(=O)O)N(Cc2cccc(F)c2)C1=O | 1%
Cc1cc(C(F)(F)F)nc(CNc2cc(C3CC(O)C3)nc(N)n2)n1 (centres undefined) | 1%
O=C1CC(c2ccccc2)N(Cc2ccncc2)CCCN(C(=O)NCc2ccccc2)CCN1 (centres undefined) | 4%
Cc1cc(CNC(=O)[C@@H]2CCC[C@@H](NC(=O)c3cc(C)n(C)n3)CN(C)C(=O)C2)no1 | 1%[70.6 µM]
COc1ccc(OC)c(CN2CCNc3cnc(OCc4cccnc4)cc3C2)c1 | -11%[70.6 µM]
O=C(Cc1cccc2ccccc12)N1C[C@@H](CO)[C@H](c2ccccn2)C1 | -17%
O=C(CCC1CCCN(Cc2cccn2-c2nccs2)C1)Nc1ccccc1F (centres undefined) | -7%
COc1ccc(CN2C[C@H]3CN(S(=O)(=O)c4ccc(OC)cc4)CCN3C2=O)cc1 | ?
CCc1nc2c(c(-c3ccc(Cl)cc3)n1)CCN([S+](=O)([O-])c1cccs1)CC2 | -12%
CCOCc1nc(C2CCCN(C(=O)NCCc3ccccc3)C2)no1 (centres undefined) | -4%
COc1ccc(-c2nn(-c3ccccc3)cc2CN2C[C@@H](C)O[C@@H](C)C2)c(F)c1 | 5%
Cn1ncc(N2CCCC(CC(=O)NCc3ccccn3)C2)cc1=O (centres undefined) | 4%
FC(F)Oc1ccccc1CN1CCCC(Nc2ccccc2)C1 (centres undefined) | -1%
CC(C)CNc1ccc2c(n1)C(C)(C(=O)NCc1cnccn1)CN(Cc1ccccc1)C2 (centres undefined) | 5%
COCCO[C@H]1C(=O)N(C2CCN(C(=O)C3CC=CC3)CC2)[C@H]1c1ccncc1 | -2%
CC(C)NC(=O)N[C@H]1CCN2C(=O)c3cc(-c4ccsc4)ccc3NC(=O)[C@@H]2C1 | 0%[70.6 µM]
CN1c2cc(C(=O)N3CCN(c4ccccc4F)CC3)ccc2C(=O)N2CCCCC21 (centres undefined) | -2%
CC(=O)c1ccc(NC(=O)N[C@@H]2C=C(C(=O)NCCC(N)=O)C[C@@H](O)[C@@H]2O)cc1 | 1%[70.6 µM]
CC(C)c1noc(C2CCCN(C(=O)NC3CCCCC3)CCC(=O)NCC2)n1 (centres undefined) | -10%
CC(=O)N1CCC(N[C@@H]2CO[C@H](CNS(=O)(=O)c3ccc(C)cc3)[C@H]2O)CC1 | 2%[70.6 µM]
CCc1noc([C@@H]2CC(F)(F)CN2C(=O)c2ccc(OC)nc2)n1 | 1%
Cc1cccc(-c2noc([C@@H]3C[C@@H](O)CN3Cc3ncc[nH]3)n2)c1 | -3%[70.6 µM]
CC(C)Oc1ccc(CNC(=O)C2CCCCC(=O)N2Cc2ccccc2)cc1 (centres undefined) | -29%
O=C(NC1CC1)[C@@H]1C[C@H](Oc2cccnc2)CN1C(=O)Cc1ccccc1 | 0%
Cc1ccc2c(c1)nc1n2[C@@H](CNC(C)C)COC1 | 0%[70.6 µM]
Cc1ccccc1NC(=O)N1CCC(CCN)CC1 | 8%

Part of the list above in order of molar mass, smallest number first:
SMILES | NPR1 antag
Cc1ccc2c(c1)nc1n2[C@@H](CNC(C)C)COC1 | 0%[70.6 µM]
CC(=O)N1CCC(N[C@@H]2CO[C@H](CNS(=O)(=O)c3ccc(C)cc3)[C@H]2O)CC1 | 2%[70.6 µM]
CN1c2cc(C(=O)N3CCN(c4ccccc4F)CC3)ccc2C(=O)N2CCCCC21 (centres undefined) | -2%

The list continues.
SMILES | NPR1 antag
CN1CCC(OC2CCN(C(=O)c3ccc(Br)o3)CC2)CC1 | -10%
CC(C)c1noc([C@@H]2C[C@@H](O)CN2Cc2ccc(N(C)C)cc2)n1 | -1%[70.6 µM]
C[C@]1(CO)[C@H]2Cc3sc(NC(=O)COc4ccccc4)nc3[C@@H](CC(=O)O)[C@]2(C)CC[C@H]1O | 3%
CC(C)c1noc(-c2cccn3c(CNC(=O)c4ccc(F)cc4Cl)nnc23)n1 | 2%
O=C(CCn1cccn1)N1CCC2(CC1)CN(Cc1ccccc1)CC2CO (centres undefined) | 1%
CCn1cc(S(=O)(=O)N[C@@H]2CN(c3ncccn3)C[C@H]2CN(C)C)cn1 | -2%
O=C1CC2CCCC(C1)N2C(=O)c1ccccc1Cl | -2%[70.6 µM]
COc1ccc2c(c1)OCC(CNC(=O)CCc1ccccc1F)C2 (centres undefined) | -3%
O=C(O)c1ccc(CN2C[C@H](O)C[C@H]2c2nc(CS(=O)(=O)c3ccc(F)cc3)no2)cc1 | 0%
CCC(C)(C)C(=O)NCCc1noc(-c2ccccc2)n1 | -7%
NC(=O)C1Cc2ccccc2CN1C(=O)CCc1nc2ccccc2[nH]c1=O (centres undefined) | -2%
O=C(NCCCN1CCCCC1)c1ccc2c(c1)N(S(=O)(=O)c1ccccc1)CC2 | 5%
COCCOCC(=O)N1CCCCCNC(=O)[C@@H]2CCCC[C@@H]21 | 2%
CC(=O)NC1CCCN(Cc2cccc(OCCN3CCOCC3)c2)C1 (centres undefined) | -2%
O=C(c1cccc(F)c1)N1CC(Oc2ccc(-c3noc(C4CCOCC4)n3)cc2)C1 | 6.3µM*
CNC(=O)c1cc(-c2cnn(C)c2)cc2c1OCCN2Cc1cccnc1 | 2%[70.6 µM]
CCC(=O)N(C1CCOCC1)C1CCN(Cc2cccc(F)c2F)CC1 | 0%
CSc1cccc(NC(=O)Cn2ccn3nc4c(c3c2=O)CCCCC4)c1 | -1%
Cc1cc(C)n(CC(=O)N2CCCC3(C2)Nc2cccnc2NC3=NC2CCCC2)n1 (centres undefined) | -4%
COc1ccc(CN2C(=O)[C@@H]3C[C@@H](CN3Cc3cccnc3)Oc3ccccc32)cc1 | ?
COC(=O)[C@@H]1Cc2c([nH]c3ccccc23)[C@H]2C[C@H](NCCNC(C)=O)C[C@@H](c3ccc(C(F)(F)F)cc3)N21 | 0%
COCCCN1C[C@@H]2CN(c3ncnc4c3CCC4)C[C@]2(C(=O)O)C1 | 0%
COc1cccc(C(=O)N2CCCN(c3cc(-c4ccc(Cl)cc4)[nH]n3)CC2)c1OC | 11µM*
COCCC(=O)N1CCC2(CCCCO2)CC1 | 4%
COCc1cn([C@H]2CO[C@H]3[C@@H]2OC[C@@H]3NC(=O)Nc2cccc(C#N)c2)nn1 | -9%[70.6 µM]
CC(=O)Nc1ccc(C(=O)N2CCC3(CC2)N=C(c2ccccc2)NO3)cc1 | 0%
COCCCNC(=O)N1CCC2(CC1)CN(Cc1ccc(OC)cc1)C2=O | 0%
CCOCC(=O)N1CCCC1c1nc(CCOc2cccc(C)c2)no1 (centres undefined) | 6%
CCNc1cc(N2CCC(CCC(=O)Nc3ccc4c(c3)OCCO4)CC2)ncn1 | -28%
Cc1cccc(NC(=O)Nc2ccc(C)n(CC(=O)NCCN3CCCCC3)c2=O)c1 | 5%
COc1ccc(CCC(=O)N2CCC(N3CC4CC(C3)[C@H]3CCCC(=O)N3C4)CC2)cc1 (some centres undefined) | 1%
COc1cc(OC)cc(N2C(=O)[C@@H]3C[C@@H](NC(=O)c4ccncc4)CCN3C2=O)c1 | -2%[70.6 µM]
O=C(CCn1ccn2nc3c(c2c1=O)CCCC3)NCc1ccccc1Cl | 2%
Cc1ccc(C(=O)N[C@H]2CO[C@H]3[C@@H]2OC[C@@H]3n2nnnc2Oc2ccccc2)cc1 | 8.9µM*
Cc1cccc(OCCc2noc(C3CN(C(=O)CCc4ccccc4)C3)n2)c1 | -14%
CCCCc1cn(CC2CCN(C(=O)c3sc(C)nc3C)CC2)nn1 | 10%
COC(=O)CC(NC(=O)Nc1cccn2nc(C)nc12)c1ccccc1 (centres undefined) | -9%
CN(CCc1ccccn1)C(=O)CCC[C@@H]1[C@H]2CCCN3CCC[C@@H](CN1C(=O)c1ccccc1)[C@@H]23 | -7%
O=C(c1ccccc1Cl)N1CCC2(CC1)CCN(Cc1cccs1)c1ccccc1O2 | 19%
O=C(Nc1cnc(-c2ccc(Cl)cc2)nc1)c1cccs1 | -2%
COc1ccc(-c2cc3c(=O)n(CCNC(=O)c4cc(F)cc(F)c4)ccn3n2)cc1 | -19%
COc1ccc(CN2C[C@@H]3[C@H](C2)N(CC2CCOCC2)C(=O)C(C)(C)[S+]3(=O)[O-])cc1O | 3%
CCOCCN1C(=O)COC[C@@H]1[C@H](O)c1ccc(NC(=O)c2ccc(F)cc2)cc1 | 0%[70.6 µM]
O=C(CCC1CCCN(Cc2cc3c(cc2Cl)OCO3)C1)Nc1ccccc1F (centres undefined) | -2%
COc1ccc(Cl)cc1C(C(=O)O)N1CCN(c2ncccc2C)CC1 (centres undefined) | -2%
CCCCNC(=O)[C@H]1CCC[C@H]1NC(=O)c1ccc(OC)nc1 | 5%

In a second layout: four of the compounds above.
structure: COc1ccc(-c2cc3c(=O)n(CCNC(=O)c4cc(F)cc(F)c4)ccn3n2)cc1
  NPR1 antag: -19%
structure: COc1ccc(Cl)cc1C(C(=O)O)N1CCN(c2ncccc2C)CC1 (centres undefined)
  NPR1 antag: -2%
structure: CCCCNC(=O)[C@H]1CCC[C@H]1NC(=O)c1ccc(OC)nc1
  NPR1 antag: 5%
structure: CCOCCN1C(=O)COC[C@@H]1[C@H](O)c1ccc(NC(=O)c2ccc(F)cc2)cc1
  NPR1 antag: 0%[70.6 µM]
